Source: PubChem (National Center for Advancing Translational Sciences (NCATS))
EPAC1 ag val: validation of human EPAC1 agonists; actives 1% (n = 16,000); O95398; EPAC1 Rap1b BODIPY-GDP exchange, fluorescence; Potency, µM, without a hit: max response, positive = active, most hits filed as activators; active means well fitted activation curve with a large enough effect; inconclusive means small, poorly fitted or top-dose-only effect; inactive means no such curve, though single readings can be large or run the other way;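 further: nearly all actives have a fitted effect of over 70% in size; series mostly up to about 76 or 150 µM; scaled to a cAMP control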
Target sequence (O95398 whole entry, looked up): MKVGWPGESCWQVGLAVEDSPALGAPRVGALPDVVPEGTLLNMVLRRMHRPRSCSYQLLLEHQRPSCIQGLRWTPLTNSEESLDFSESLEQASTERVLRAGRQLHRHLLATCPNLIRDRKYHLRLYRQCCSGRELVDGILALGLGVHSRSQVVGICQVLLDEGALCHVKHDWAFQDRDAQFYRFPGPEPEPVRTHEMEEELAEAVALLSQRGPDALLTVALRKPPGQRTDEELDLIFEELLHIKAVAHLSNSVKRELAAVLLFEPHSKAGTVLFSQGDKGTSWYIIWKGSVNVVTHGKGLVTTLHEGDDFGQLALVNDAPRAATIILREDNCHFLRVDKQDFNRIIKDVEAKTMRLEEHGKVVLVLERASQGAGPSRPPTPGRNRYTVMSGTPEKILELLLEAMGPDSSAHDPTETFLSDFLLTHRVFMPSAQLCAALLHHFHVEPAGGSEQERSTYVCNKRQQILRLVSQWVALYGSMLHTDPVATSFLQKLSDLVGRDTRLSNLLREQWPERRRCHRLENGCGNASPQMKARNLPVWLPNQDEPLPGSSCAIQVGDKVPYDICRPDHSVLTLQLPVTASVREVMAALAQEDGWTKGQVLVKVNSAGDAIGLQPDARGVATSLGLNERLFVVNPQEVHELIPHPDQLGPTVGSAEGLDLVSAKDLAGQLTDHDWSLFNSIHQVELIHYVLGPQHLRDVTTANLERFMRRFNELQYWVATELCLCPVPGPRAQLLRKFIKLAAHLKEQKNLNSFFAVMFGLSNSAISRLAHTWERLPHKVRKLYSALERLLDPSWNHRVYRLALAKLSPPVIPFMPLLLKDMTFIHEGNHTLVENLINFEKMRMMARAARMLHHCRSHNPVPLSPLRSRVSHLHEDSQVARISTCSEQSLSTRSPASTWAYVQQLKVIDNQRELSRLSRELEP
Starred values were filed as active, the others as inactive; ? = inconclusive; & = joins results of further samples; [ ] = remark or other dose. On the % scale 0 is the no-effect control and ±100 the full control effect; potency means the concentration at half of the fitted maximal effect. Not all compounds are listed, so the mix of outcomes need not match the whole.

Preview (15 entries):
SMILES	EPAC1 ag val
O=C(/C=C(\O)c1ccccc1)c1ccccc1O	13.1%
N#CCCn1c(=O)c(-c2ccccc2)nc2cnc(N3CCOCC3)nc21	10.8%
COc1ccccc1/C=C\C(=O)O	2.4%
N[C@](CC1c2ccccc2Oc2ccccc21)(C(=O)O)[C@H]1C[C@@H]1C(=O)O	-18.1%
CC(C)=CCCC1(C)C=Cc2c(c(C)cc3c2[nH]c2ccccc23)O1 (stereo not given)	?
COc1cccc(Cn2c(=O)c(-c3cc(F)cc(F)c3)nc3cnc(N4CCN(C)CC4)nc32)c1	-47.5%[inhibitor]
COc1cccc(Nc2ncc3ncc(=O)n(C4CC4)c3n2)c1	-4.6%
O=C(c1ccco1)N1CCC[C@@]2(CCN(Cc3ccccc3)C2)C1	-5.6%
COc1ccccc1C1CN(Cc2c(C)nc3sccn23)Cc2ccccc2O1 (stereo not given)	13.0%
Cc1nc2cncnc2n(-c2ccccc2)c1=O	8.3%
COc1cccc(-c2cncnc2NC2CCNCC2)c1	-39.0%
CCCCC[C@H](O)CC[C@H]1[C@H](O)CC(=O)[C@@H]1CCCCCCC(=O)O	-13.6%
Cc1nc2cnc(Nc3ccccc3)nc2n(Cc2ccc(F)cc2)c1=O	15.4%
Cc1noc(C)c1-c1nc(N2CCOCC2)c2ccccc2n1	-31.1%
Cc1c(O)cc2c(c1C)O[C@](C)(CCC[C@H](C)CCC[C@H](C)CCCC(C)C)CC2	-25.3%

The listing, previewed entries included:
SMILES	EPAC1 ag val
O=C(/C=C(\O)c1ccccc1)c1ccccc1O	13.1%
N#CCCn1c(=O)c(-c2ccccc2)nc2cnc(N3CCOCC3)nc21	10.8%
COc1ccccc1/C=C\C(=O)O	2.4%
N[C@](CC1c2ccccc2Oc2ccccc21)(C(=O)O)[C@H]1C[C@@H]1C(=O)O	-18.1%
CC(C)=CCCC1(C)C=Cc2c(c(C)cc3c2[nH]c2ccccc23)O1 (stereo not given)	?
COc1cccc(Cn2c(=O)c(-c3cc(F)cc(F)c3)nc3cnc(N4CCN(C)CC4)nc32)c1	-47.5%[inhibitor]
COc1cccc(Nc2ncc3ncc(=O)n(C4CC4)c3n2)c1	-4.6%
O=C(c1ccco1)N1CCC[C@@]2(CCN(Cc3ccccc3)C2)C1	-5.6%
COc1ccccc1C1CN(Cc2c(C)nc3sccn23)Cc2ccccc2O1 (stereo not given)	13.0%
Cc1nc2cncnc2n(-c2ccccc2)c1=O	8.3%
COc1cccc(-c2cncnc2NC2CCNCC2)c1	-39.0%
CCCCC[C@H](O)CC[C@H]1[C@H](O)CC(=O)[C@@H]1CCCCCCC(=O)O	-13.6%
Cc1nc2cnc(Nc3ccccc3)nc2n(Cc2ccc(F)cc2)c1=O	15.4%
Cc1noc(C)c1-c1nc(N2CCOCC2)c2ccccc2n1	-31.1%
Cc1c(O)cc2c(c1C)O[C@](C)(CCC[C@H](C)CCC[C@H](C)CCCC(C)C)CC2	-25.3%
Cc1ncc2c(c1CNC(=O)/C=C/c1cccs1)CCN(C(=O)C1CC(=O)OC13CCCCC3)C2 (stereo not given)	2.9%
Nc1nc2c(ncn2C2CC(O)C(CO)O2)c(=O)[nH]1 (stereo not given)	14.9%
CCCCc1cc2c(=O)c(C(=O)OC)c[nH]c2cc1OCc1ccccc1	8.7%
N#Cc1ccc(CN2CC[C@@]3(CCCN(C(=O)c4ccncc4)C3)C2)cc1	-15.3%
CC(=O)Oc1c(C)c(C)c2c(c1C)CC[C@@](C)(CCC[C@H](C)CCC[C@H](C)CCCC(C)C)O2	-67.7%&-36.0%&-74.3%[inhibitor]
c1csc(CNc2ncncc2-c2ccoc2)c1	-25.6%
COc1ccc(Oc2ncc3nc(-c4ccccc4)c(=O)n(CCC#N)c3n2)cc1	19.6%
Cc1ccc(C(C)(C)c2ccc(C)cc2)cc1	6.3%
CCC1CN(CCNC(=O)c2ccc(N3CCOCC3)cc2)Cc2cc(OC)ccc2O1 (stereo not given)	10.9%
CCCCC[C@H](O)C=C[C@H]1[C@H](O)CC(=O)[C@H]1CCCCCCC(=O)O	-19.1%
COCCn1c(=O)cnc2cnc(Nc3cccc(OC)c3)nc21	-22.4%
CC[C@@H](C)[C@@H](N)C1=N[C@H](C(=O)N[C@@H](CC(C)C)C(=O)N[C@@H](CCC(=O)O)C(=O)N[C@@H](C(=O)N[C@@H]2CCCCNC(=O)[C@@H](CC(N)=O)NC(=O)[C@@H](CC(=O)O)NC(=O)[C@@H](Cc3cnc[nH]3)NC(=O)[C@@H](Cc3ccccc3)NC(=O)[C@@H]([C@H](C)CC)NC(=O)[C@@H](CCCN)NC2=O)[C@@H](C)CC)CS1	-87.1%&-13.0%[inhibitor]
N[C@@H](Cc1ccc(F)cc1)C(=O)O	3.4%
CC(=O)N1CCC[C@@]2(CCN(Cc3ccccc3)C2)C1	8.6%
COc1ccc(CCCOC(Cn2ccnc2)c2ccc(OC)cc2)cc1 (stereo not given)	7.4%&1.1%
COc1ccc2c(c1)-c1nc(-n3ncc(C(=O)N(C)CCO)c3C3CC3)ncc1CC2	-1.2%
c1ccc(CN2CCC3(CCc4ccccc43)CC2)cc1	-9.7%&3.8%
C(=Nc1cnc2ccccc2c1)c1ccc2ccccc2n1	15.7%
OC(Cn1cncn1)(Cn1cncn1)c1ccc(F)cc1F	-43.6%[inhibitor]
COc1cccc(Cn2c(=O)c(C)nc3cnc(Oc4ccccc4)nc32)c1	?
Cc1noc(C)c1C(=O)N1CCC[C@@]2(CCN(C(=O)Nc3cccc(F)c3)C2)C1	-62.5%[inhibitor]
C[C@H](CCC(=O)O)[C@H]1CC[C@H]2[C@@H]3C(=O)C[C@@H]4CC(=O)CC[C@]4(C)[C@H]3CC(=O)[C@]12C	-18.5%
CCOC(=O)OCC/C(SC(=O)OCC)=C(\C)N(C=O)Cc1cnc(C)nc1N	9.1%
CCOc1nc2cccc(C(=O)OC(C)OC(=O)OC3CCCCC3)c2n1Cc1ccc(-c2ccccc2-c2nn[nH]n2)cc1 (stereo not given)	?
CC(O)(COc1ccccc1)c1ccc2c(c1)CN(Cc1cccc3ncccc13)CCO2 (stereo not given)	4.8%
Clc1ccccc1-c1nc(NCCN2CCOCC2)c2ccccc2n1	5.8%
CCOC(=O)c1cccnc1	-16.7%
COCCn1c(=O)c(-c2ccc(OC)cc2)nc2cnc(Oc3ccc(OC)cc3)nc21	?
Cc1ccc2[nH]c(C(=O)NCc3nc(-c4cccc(NC(=O)c5cc(C)oc5C)c4)oc3C)cc2c1	-4.8%
COc1ccc(CNc2ccnc(-c3ccc4c(c3)OCO4)n2)c(OC)c1	15.4%
O=C1Nc2ccccc2C(=O)N2CCC[C@@H]12	0.4%
COC(=O)N1CCC2(CC1)CCN(c1ccccc1)CC2	-66.4%[inhibitor]
COc1cccc(Cn2c(=O)c(-c3cccs3)nc3cnc(N(C)C)nc32)c1	-33.0%[inhibitor]
COc1ccc(F)c(CN2CCC3(CCC(CNC(=O)c4cc(C)nn4C)O3)CC2)c1 (stereo not given)	-13.2%
O=C(O)C[C@H]1c2cc(C(F)(F)F)ccc2S(=O)(=O)N1C1CCCC1	0.6%
CC(NC(=O)c1ccco1)c1nnc2n1CCN(Cc1cccc(Cl)c1)CC2 (stereo not given)	0.3%
COc1cc2nc(C#Cc3nc4cc(OC)c(OC)cc4[nH]3)[nH]c2cc1OC	-14.1%
C=CCN1CCc2cc(O)c(O)cc2C(c2ccccc2)C1 (stereo not given)	6.1%
COc1cccc(Cc2nc3cccnc3n2C2CCN(Cc3ccc(C)s3)CC2)c1	-0.7%
CC(C)(C)NC[C@@H](O)COc1nsnc1N1CCOCC1	?
CC(C)=CCC/C(C)=C/C=C/C(C)=C/C=C/C(C)=C/C=C/C=C(C)/C=C/C=C(C)/C=C/C=C(\C)CCC=C(C)C	-5.1%
Cc1nc2cnc(N(C)C)nc2n(CCC#N)c1=O	-7.9%
Cc1cnc(CNc2ccnc(-c3ccccc3C(F)(F)F)n2)cn1	6.2%
CC1(C)[C@@H]2CC[C@@]1(C)C(=O)C2	-4.4%&-6.2%
COCC(=O)N1CCC2(CCCN(Cc3cc(C(F)(F)F)cc(C(F)(F)F)c3)C2)CC1	-97.4%[inhibitor]

Going on with the list.
SMILES	EPAC1 ag val
C[C@@H](O)[C@H]1C(=O)N2C(C(=O)O)=C(SCCN=CN)C[C@H]12	2.6%&-4.5%
O=C(O)COc1ccc(CCNS(=O)(=O)c2ccccc2)s1	-5.8%
O=C(Nc1cccc(F)c1)N1CCC2(CCNCC2)CC1	-72.1%[inhibitor]
CCC1CN(Cc2cn[nH]c2-c2ccc(F)cc2)Cc2cc(OC)ccc2O1 (stereo not given)	-1.0%
Cc1cccc2[nH]cc(/C=C3/C=Nc4ccccc43)c12	?
CC(C)[C@@H]1CC[C@@H](C)C[C@@H]1P(=O)(c1ccccc1)c1ccccc1	1.4%
CCOc1ccc2nc3cc(N)ccc3c(N)c2c1	28.5%&-42.6%
CCNc1ncc2nc(C)c(=O)n(-c3ccc(OC)cc3)c2n1	-48.1%[inhibitor]
O=C(O)CCNC(=O)c1ccc(N=Nc2ccc(O)c(C(=O)O)c2)cc1	-36.4%[inhibitor]
O=C1OC(CN2CCOCC2)CN1/N=C/c1ccc([N+](=O)[O-])o1 (stereo not given)	28.5%
COC(=O)N1CCC2(CCCN(C(=O)Nc3ccc(OC)cc3)C2)CC1	-5.2%
CCNc1ncc2nc(-c3ccc(Cl)cc3)c(=O)n(C)c2n1	-51.7%[inhibitor]
Nc1ncnc2n[nH]c(Nc3ccc(F)cc3)c12	-6.3%
N[C@@H](CCS(=O)O)C(=O)O	-3.3%&-18.0%
CCC1C(=O)NCCN1Cc1ccc2c(c1)CN(Cc1ccc(F)c(OC)c1)CCO2 (stereo not given)	0.3%
Cc1[nH]c2ccccc2c1/C=C/c1ccc2ccccc2n1	100µM*
CN1C2CC(OC(=O)[C@H](CO)c3ccccc3)CC1C1OC12 (stereo not given in full)	3.1%
COc1ccc(-c2coc3cc(OC4OC(CO)C(O)C(O)C4O)cc(O)c3c2=O)cc1 (stereo not given)	-14.4%
CN1CCN(c2ncc3nc(CCc4ccccc4)c(=O)n(Cc4cccs4)c3n2)CC1	100µM*
N#Cc1cccc(-c2ccc3ncnc(N4CCNCC4)c3c2)c1	1.2%
O=C[C@H](O)[C@@H](O)[C@@H](O)[C@H](O)CO	-41.9%[inhibitor]
CCOC(=O)N1CCN(C(=O)c2ccc(-c3ccccc3OC)nc2N2CCC(N3CCCC(CO)C3)CC2)CC1 (stereo not given)	-3.5%
CC(C)CN1CC2(CCN(C(=O)c3cnccn3)CC2)C1	-5.3%
CCOC(=O)COc1ccc2c(C)c(CCN(CC)CC)c(=O)oc2c1Cl	9.5%
O=c1[nH]c(=O)n(C2CC(O)C(CO)O2)cc1C(F)(F)F (stereo not given)	-18.1%
COC(=O)c1c(OCc2cccnc2)cc(=O)n2c1CCN(C(=O)c1ccc(OC)c(F)c1)CC2	-10.9%
CCCC(=O)N1CCCN(c2nc(N)c3cc(OC)c(OC)cc3n2)CC1	1.9%
COc1cc(=O)n2c(c1C(=O)N(C)Cc1nonc1C)CCN(Cc1cc(F)ccc1F)CC2	-0.8%
COc1ccc(CCn2nnnc2C2(c3ccc(C)cc3)CC2)cc1	13.5%
CNC(=O)[C@@H]1C[C@H](Sc2nc3ccccc3[nH]2)CN1Cc1ccccc1C(F)(F)F	-7.2%
COc1ccccc1CNc1cc(-c2ccccc2OC)ncn1	15.3%
Cc1ccc(S[C@@H](CCN2CC[C@H](C)CCC2=O)c2ccccc2)cc1	15.6%
CCNc1ncc2ncc(=O)n(CCOC)c2n1	27.8%
COc1cc(=O)n2c(c1C(=O)NCc1ccco1)CCN(Cc1c(F)cccc1F)CC2	-21.1%
COc1ccccc1-c1nccc(NCc2cnc(C)cn2)n1	?
O=C(c1cn(CC2CCCN(Cc3cc4ccccc4s3)C2)nn1)N1CCCC1 (stereo not given)	-16.0%
O=C(CCN1CCN2CCCC2C1)N1c2ccccc2Sc2ccc(Cl)cc21 (stereo not given)	-17.8%
CCCCCCCCN1[C@@H](CC(=O)OC)c2cc(F)ccc2S1(=O)=O	-49.1%[inhibitor]
CC(Oc1ccc(O)cc1)(P(=O)(O)O)P(=O)(O)O	-7.6%
Cc1nc(C)c(C(=O)N2CCc3c(cnc(C)c3CNC(=O)c3cncs3)C2)s1	-4.1%
COc1ccc2c(c1)NC(=O)C2CC(=O)N1CCOc2c(cc(-c3cnc4ccccc4c3)cc2OC)C1 (stereo not given)	-7.3%
Cc1cccc(CNc2cc(-c3ccccc3C)ncn2)c1	-38.8%
CC1(C)CCCC2(C)C3C(O)CC2(C)C(O)C31 (stereo not given)	-18.9%
CCN1/C(=C/C=C/c2sc3ccccc3[n+]2CC)Sc2ccccc21	-11.3%
COc1ccc(CNc2ncncc2-c2ccccc2Cl)c(OC)c1	?

Shown with values ahead of the structure: entries from further up.
EPAC1 ag val | molecule
-18.9% | CC1(C)CCCC2(C)C3C(O)CC2(C)C(O)C31 (stereo not given)
-49.1%[inhibitor] | CCCCCCCCN1[C@@H](CC(=O)OC)c2cc(F)ccc2S1(=O)=O

The listing continues.
SMILES	EPAC1 ag val
COc1cc(/C=C/C(=O)c2c(O)cc(C)oc2=O)ccc1O	6.5%
O=c1c(-c2ccccc2)nc2cnc(N3CCNCC3)nc2n1Cc1ccc(F)cc1	-9.8%
COCC(C)NCc1cc2ccc(OC)cc2nc1N1CCN(c2ccc(F)cc2)CC1 (stereo not given)	9.9%
CCNc1ncc2nc(CCc3ccccc3)c(=O)n(CCOC)c2n1	-87.0%[inhibitor]
Cn1c(=O)c(CCc2ccccc2)nc2cncnc21	13.8%
COC(=O)c1cccc(C(=O)N2CCc3c(C(=O)OC)c(OCc4ccccn4)cc(=O)n3CC2)c1	-3.6%
O=C1CCN(Cc2ccc([N+](=O)[O-])cc2)CCN1CCO	7.1%
Oc1cccc(O)c1	-5.2%&-12.9%
COC(=O)CCC(=O)CN	-9.5%
CNC(C)C1CC[C@H](N)[C@@H](OC2C(N)C[C@H](N)[C@@H](OC3OC[C@](C)(O)C(NC)[C@H]3O)C2O)O1 (stereo not given in full)	-11.0%
Nc1ncnc2[nH]c(=O)[nH]c12	22.9%
CS(=O)(=O)Nc1cccc(-c2nccc(NCc3cccs3)n2)c1	2.5%
